EPAC1 ag val – Validation qHTS for agonist of cAMP-regulated guanine nucleotide exchange factor 3 (EPAC1); Rap guanine nucleotide exchange factor 3 (Homo sapiens), O95398; Potency, µM, without a hit: max response, positive = active, usual class: activators; 16,000 tested, 1% active; EPAC1 Rap1b BODIPY-GDP exchange, fluorescence; active = well fitted activation curve with a large enough effect; inconclusive = small, poorly fitted or top-dose-only effect; inactive = no such curve, though single readings can be large or run the other way;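 note: nearly all actives have a fitted effect of over 70% in size; series mostly up to about 76 or 150 µM; scaled to a cAMP control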
Target sequence (O95398 whole entry, looked up): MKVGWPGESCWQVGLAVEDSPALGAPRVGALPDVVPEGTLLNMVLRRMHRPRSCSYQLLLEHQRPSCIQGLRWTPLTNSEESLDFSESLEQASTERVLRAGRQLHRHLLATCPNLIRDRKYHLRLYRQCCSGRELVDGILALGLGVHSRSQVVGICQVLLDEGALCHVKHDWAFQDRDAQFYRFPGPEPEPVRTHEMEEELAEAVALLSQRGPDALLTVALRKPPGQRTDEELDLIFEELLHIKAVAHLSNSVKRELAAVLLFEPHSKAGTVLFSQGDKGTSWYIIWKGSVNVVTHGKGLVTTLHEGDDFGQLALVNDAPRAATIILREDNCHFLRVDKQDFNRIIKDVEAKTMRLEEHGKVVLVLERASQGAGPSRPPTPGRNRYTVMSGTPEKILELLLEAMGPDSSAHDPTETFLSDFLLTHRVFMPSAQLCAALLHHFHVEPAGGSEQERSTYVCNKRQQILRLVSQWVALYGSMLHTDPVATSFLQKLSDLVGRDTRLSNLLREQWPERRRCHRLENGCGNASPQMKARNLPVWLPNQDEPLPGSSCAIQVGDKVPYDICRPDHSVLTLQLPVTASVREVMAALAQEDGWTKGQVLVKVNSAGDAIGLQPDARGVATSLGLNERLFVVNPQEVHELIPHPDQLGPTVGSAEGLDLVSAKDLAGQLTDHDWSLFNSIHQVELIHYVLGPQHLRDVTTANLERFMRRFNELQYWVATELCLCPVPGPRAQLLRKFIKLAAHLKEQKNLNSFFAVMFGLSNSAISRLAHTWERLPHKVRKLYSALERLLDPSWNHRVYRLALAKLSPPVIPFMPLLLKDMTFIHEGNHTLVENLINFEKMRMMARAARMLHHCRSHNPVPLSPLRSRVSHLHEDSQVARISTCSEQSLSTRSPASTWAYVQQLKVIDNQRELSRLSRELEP
Starred values were filed as active, the others as inactive; ? = inconclusive; & = joins results of further samples; [ ] = another dose, or the depositor's remark. % is set by controls: 0 for no effect and ±100 for the full control effect; potency is the fitted concentration of half-maximal effect.

SMILES	EPAC1 ag val
c1ccc(CN2CCC3(CCNCC3)CC2)cc1	-53%[inhibitor]
C[C@]12C/C(=C/O)C(=O)C[C@@H]1CC[C@@H]1[C@@H]2CC[C@@]2(C)[C@H]1CC[C@]2(C)O	-12%
FC(F)(F)c1cccc(C2=CCN(CCc3ccc4ccccc4c3)CC2)c1	0%
CCOP(=S)(OCC)SCSc1ccc(Cl)cc1	4%
C[C@@]12CCC3C(CC[C@@H]4CC(O)CC[C@@]34C)C1CCC2O (stereo not given in full)	-1%
O=C1NCN(c2ccccc2)C12CCN(CC1COc3ccccc3O1)CC2 (stereo not given)	1%&-10%&-2%
CC(C)[C@H]1C(=O)N2CCC[C@H]2[C@]2(O)O[C@](NC(=O)[C@@H]3C[C@@H]4c5cccc6[nH]cc(c56)C[C@H]4N(C)C3)(C(C)C)C(=O)N12	1%
COc1c2c(cc3c1OCO3)CCN(C)C2	-26%
CC1(C)C(=O)[C@@H]2OC2[C@@]2(C)C1CC(O)[C@]1(C)C2CC[C@@]2(C)C(c3ccoc3)OC(=O)C3OC312 (stereo not given in full)	8%
CCCOc1ccc2[nH]cc(C3=CCNCC3)c2n1	-1%
CSCC[C@H](NC(=O)[C@H](Cc1ccccc1)NC(=O)CNC(=O)CNC(=O)[C@@H](N)Cc1ccc(O)cc1)C(=O)O	-12%
COC(=O)[C@H]1[C@@H](OC(=O)c2ccccc2)C[C@@H]2CC[C@H]1N2C	-13%
NCC(=O)c1ccccc1	-5%
O=C1C=C2C=C[C@@H]3C[C@@]2(O1)[C@H]1CCCCN31	6%&8%
COc1ccc(/C=C/C(=O)N2CC3C[C@@H](C2)Cn2c3cccc2=O)cc1OC	-19%
O=C(O)c1ccc2[nH]cc(CCCCN3CC=C(c4ccccc4)CC3)c2c1	-20%
c1ccc(CN2CC[C@@]3(CCCNC3)C2)cc1	-55%[inhibitor]
COc1ccc2[nH]cc(CCN(C(C)C)C(C)C)c2c1	-10%
CC[C@H](C)[C@H](NC(=O)[C@H](CCCN=C(N)N)NC(=O)[C@H](CCCN=C(N)N)NC(=O)[C@H](CC(C)C)NC(=O)[C@H](Cc1ccccc1)NC(=O)CNC(=O)CNC(=O)[C@@H](N)Cc1ccc(O)cc1)C(=O)O	-13%
CN1CCC2=C[C@@H](O)[C@@H]3OC(=O)c4cc5c(cc4C3C21)OCO5 (stereo not given in full)	-6%
CCC(=O)C(CC(C)N(C)C)(c1ccccc1)c1ccccc1 (stereo not given)	?
N#CN	6%
Cc1ccc(Cl)c(O)c1	-11%
CCN(C(C)=O)c1cccc(-c2ccnc3c(C#N)cnn23)c1	15%
CN1CCc2cccc(Cl)c2CC1	-6%
COC1=CC23CCCN2CCc2cc4c(cc2C3C1O)OCO4 (stereo not given)	20%
O=C(O)CCCO	-8%
O=[N+]([O-])c1cc([As](=O)(O)O)ccc1O	10%&20%
CNC(C)Cc1ccccc1 (stereo not given)	14%
CN1C2CCC1CC(OC(=O)C1CCC(C(=O)OC3CC4CCC(C3)N4C)(c3ccccc3)c3ccccc31)C2 (stereo not given)	-10%

Random excerpt: 2 compounds from above
SMILES	EPAC1 ag val
CN1C2CCC1CC(OC(=O)C1CCC(C(=O)OC3CC4CCC(C3)N4C)(c3ccccc3)c3ccccc31)C2 (stereo not given)	-10%
N#CN	6%

Next section:
SMILES	EPAC1 ag val
CCCCC/C=C\C/C=C\C/C=C\C/C=C\CCCC(=O)Nc1ccc(O)cc1	-70%[inhibitor]
CC(=O)OCC1=C(C(=O)O)N2C(=O)C(NC(=O)CCCC(N)C(=O)O)C2SC1 (stereo not given)	?
CN(C)C1C(=O)C(C(N)=O)=C(O)[C@@]2(O)C(=O)C3=C(O)c4c(O)ccc(Cl)c4[C@](C)(O)C3CC12 (stereo not given in full)	25%
CC1=C2C3OC(=O)C(C)C3CC[C@@]2(C)C=CC1=O (stereo not given in full)	10%
CN(C)[C@@H]1C(=O)C(C(N)=O)=C(O)[C@@]2(O)C(=O)C3=C(O)c4c(O)ccc(Cl)c4[C@@](C)(O)[C@H]3C[C@@H]12	-8%
CC(Cc1ccc2c(c1)OCO2)NO (stereo not given)	-5%
CNC(C)[C@H](O)c1ccccc1 (stereo not given in full)	0%
O=C1C(Cl)=C(Cl)C(=O)C(Cl)=C1Cl	?
COC(=O)N1CCC2(CCN(CC(C)C)CC2)CC1	13%
CN(C(=O)Cc1ccc(Cl)c(Cl)c1)C(CN1CCCC1)c1cccc(OCC(=O)O)c1 (stereo not given)	-8%&-10%
CC1=C(O)C(=O)[C@H]2O[C@@H]2C1=O	6%
CC(C)[C@@]1(NC(=O)[C@H]2CC3c4cccc5[nH]cc(c45)C[C@H]3N(C)C2)O[C@@]2(O)C3CCCN3C(=O)[C@@H](Cc3ccccc3)N2C1=O (stereo not given in full)	5%
Oc1cccc[c]1[Hg][Cl]	-12%
O=C(c1csnn1)N1CCC2(CC1)CN(Cc1ccncc1)C2	26%
CCCCCCCCCC[N+](C)(C)CCCCCCCCCC	-78%[inhibitor]
COC1(CS(=O)c2ccccc2)CCN(CCc2c[nH]c3ccc(F)cc23)CC1 (stereo not given)	-13%
C=C(C)[C@H]1CN[C@H](C(=O)O)[C@H]1CC(=O)O	0%&-3%
COc1ccc(CCN)cc1	-15%
COc1ccc2c3c1O[C@H]1[C@@H](O)C=C[C@H]4[C@@H](C2)NCC[C@@]341	-3%&-17%
CN1C2CCC1CC(OC(c1ccccc1)c1ccc(Cl)cc1)C2 (stereo not given)	-29%
O=c1ccc2c(O)c3ccoc3cc2o1	-11%
COc1cc2c(cc1OC)C(C)NCC2 (stereo not given)	-16%&-7%
CC(=O)NCCc1c[nH]c2ccccc12	-2%&-20%&-12%&6%
O=C1NC(=O)C(=O)C(=O)N1	28%
N#CC(C#N)=Cc1cc(O)c(O)c(O)c1	-19%&-23%
F/C(COc1ccc2c(c1)[nH]c1ccccc12)=C1/CN2CCC1CC2	-35%[inhibitor]
C[N+]1(C)CCN(c2ccccc2)CC1	9%&-3%
N#Cc1ccc(CN2CCCC3(CCN(C(=O)Oc4ccccc4)CC3)C2)cc1	-44%[inhibitor]
O=C1Nc2cc(Cl)c(Cl)cc2N2CCNC[C@H]12	-13%
c1cncc(C2=NCCC2)c1	-20%

Two of these compounds in a different format.
COc1cc2c(cc1OC)C(C)NCC2 (stereo not given)
- EPAC1 ag val: -16%&-7%
CC(=O)NCCc1c[nH]c2ccccc12
- EPAC1 ag val: -2%&-20%&-12%&6%

The main list resumes, starting three compounds before the break.
SMILES	EPAC1 ag val
N#Cc1ccc(CN2CCCC3(CCN(C(=O)Oc4ccccc4)CC3)C2)cc1	-44%[inhibitor]
O=C1Nc2cc(Cl)c(Cl)cc2N2CCNC[C@H]12	-13%
c1cncc(C2=NCCC2)c1	-20%
CN(C(=O)Cc1ccc(Cl)c(Cl)c1)[C@H](CN1CCCC1)c1cccc(N=C=S)c1	25%
COc1cc(C(O)CN)ccc1O (stereo not given)	-17%
CN1CC[C@@H]2CN3CCc4cccc(c43)[C@@H]2C1	-4%
CCN(CC)CCc1c[nH]c2ccccc12	6%
c1ccc(CN2CCCC3(CCNCC3)C2)cc1	-8%
C[N+](C)(C)CC(=O)[O-]	?
N[C@@H](Cn1ccc(=O)n(Cc2ccc(C(=O)O)cc2)c1=O)C(=O)O	8%
O=C(O)C(Cl)(Cl)Cl	?
O=C(NC(O)C(Cl)(Cl)Cl)NC(O)C(Cl)(Cl)Cl (stereo not given)	8%
CCCCCCCCCOc1ccc2[nH]cc(CCN)c2c1	2%&0%

Compounds above that contain fluorine:
SMILES	EPAC1 ag val
FC(F)(F)c1cccc(C2=CCN(CCc3ccc4ccccc4c3)CC2)c1	0%
COC1(CS(=O)c2ccccc2)CCN(CCc2c[nH]c3ccc(F)cc23)CC1 (stereo not given)	-13%
F/C(COc1ccc2c(c1)[nH]c1ccccc12)=C1/CN2CCC1CC2	-35%[inhibitor]

Next structures.
SMILES	EPAC1 ag val
CCC(C)C(=O)OC1C(O)C2C(CN3CC(C)CCC3[C@]2(C)O)C2C[C@]34O[C@@]5(O)C(OC(=O)C(C)(O)CC)CCC3(C)C5C(OC(C)=O)C(OC(C)=O)C4[C@@]21O (stereo not given in full)	?
CN1CCC2(CC1)CCN(C(=O)Oc1ccccc1)CC2	-69%[inhibitor]
COc1c(CC=C(C)C)c2c(c3oc(=O)c(-c4ccc(O)cc4)c(O)c13)C=CC(C)(C)O2	-109%[inhibitor]
COc1ccc2[nH]c3c(c2c1)CCNC3	9%
CC(C)NC(=O)N1CCCC2(CCN(C(=O)Oc3ccccc3)CC2)C1	?
c1ccc2c(c1)Sc1ccccc1N2CC1CN2CCC1CC2 (stereo not given)	-11%
Cc1c(Cl)c(=O)oc2cc(OP(=O)(OCCCl)OCCCl)ccc12	4%
CC(C)CN1CC[C@@]2(CCCN(C(=O)c3ccncc3)C2)C1	17%
O=C(Nc1cccc(F)c1)N1CC2(CCN(C(=O)Oc3ccccc3)CC2)C1	27%
CC(C)NC[C@H](O)c1ccc(N)c(C#N)c1	8%
CCCCCCCCCCCCCCCC[n+]1ccccc1	-41%&-55%[inhibitor]
C#CCN(C)[C@H](C)Cc1ccccc1	-8%&5%&-14%
CN(C)[C@H](Cc1ccccc1)c1ccccc1	-8%
CC(CC(C#N)(c1ccccc1)c1ccccc1)N(C)C (stereo not given)	0%
O=C(c1ccncc1)N1CCC2(CC1)CN(Cc1ccccc1)C2	-28%
CCN(CCO)CCn1c(Cc2ccccc2)nc2c1c(=O)n(C)c(=O)n2C	11%
C[C@H](N)C(=O)N[C@@H](C)C(=O)N[C@@H](Cc1ccccc1)C(=O)CCl	-11%
CN=C1CN(O)C(c2ccccc2)=c2cc(Cl)ccc2=N1	0%&-15%
C[C@]12CCC(=O)C=C1CC[C@@H]1[C@H]3CC[C@](C)(O)[C@@]3(C)CC[C@@H]12	-14%
CC(C)(C)NC[C@@H](O)COc1cccc2[nH]c(C#N)cc12	-26%
O=C(Oc1ccccc1)N1CCC2(CC1)CCN(C(c1ccccc1)c1ccccc1)CC2	-50%[inhibitor]
O=C(Oc1ccccc1)N1CCC2(CCN(Cc3ccccc3)CC2)CC1	-67%[inhibitor]
COc1ccc(NC(=O)N2CCC3(CC2)CCN(C(=O)Oc2ccccc2)CC3)cc1	-78%[inhibitor]
Clc1ccc(Cl)cc1	-25%
CCN(CC)/[N+]([O-])=N/O	15%
CC(=O)O[C@H]1C[C@H](O[C@H]2[C@@H](O)C[C@H](O[C@H]3[C@@H](O)C[C@H](O[C@H]4CC[C@@]5(C)[C@H](CC[C@@H]6[C@@H]5C[C@@H](O)[C@]5(C)[C@@H](C7=CC(=O)OC7)CC[C@]65O)C4)O[C@@H]3C)O[C@@H]2C)O[C@H](C)[C@H]1O[C@@H]1O[C@H](CO)[C@@H](O)[C@H](O)[C@H]1O	-35%[inhibitor]
C[N+]1([O-])[C@@H]2CC[C@H]1CC(OC(=O)C(CO)c1ccccc1)C2 (stereo not given in full)	22%&-3%
O=C(Cc1ccc(Cl)c(Cl)c1)N1CCCCC1CN1CCCC1 (stereo not given)	0%&-19%
CN1CCc2cc(O)cc3c2[C@H]1Cc1ccc(O)c(O)c1-3	5%
O=C(NC(=O)c1ccccc1Cl)Nc1ccc(OC(F)(F)F)cc1	5%
O=C(NC(=O)c1c(F)cccc1F)Nc1ccc(Cl)c(Oc2ncc(C(F)(F)F)cc2Cl)c1	-11%
NCCCP(=O)(O)O	4%
CCN1C[C@]2(COC(=O)c3ccccc3N3C(=O)C[C@H](C)C3=O)CC[C@H](OC)[C@@]34[C@@H]5C[C@H]6[C@H](OC)[C@H]5[C@](O)(C[C@@H]6OC)[C@@](O)([C@@H](OC)[C@@H]23)[C@@H]14	2%
CN1CC(CNC(=O)OCc2ccccc2)CC2c3cccc4c3c(cn4C)CC21 (stereo not given)	-10%
O=C(O)c1cc[c]([Hg][Cl])cc1	-2%
c1cc2cc(c1)C[n+]1ccc(c3ccccc31)NCc1ccc(cc1)CNc1cc[n+](c3ccccc13)C2	3%
COc1cc2c(cc1O)-c1c(O)c(OC)cc3c1[C@H](C2)N(C)CC3	12%
COC(=O)C(c1ccccc1)C1CCCCN1 (stereo not given)	-12%
C=CCc1ccc(OC)cc1	2%
CCCN(CCC)[C@@H]1CCc2c(OC)cccc2[C@@H]1C	-11%&-5%
CN[C@@]1(c2ccccc2Cl)CCCCC1=O	1%
CC(C)C[C@H](NC(=O)[C@H](Cc1ccccc1)NC(=O)CNC(=O)[C@@H](NC(=O)[C@@H](N)Cc1ccc(O)cc1)[C@H](C)O)C(=O)N[C@H](C(=O)O)[C@H](C)O	-22%
Clc1cccc(SC2CCNCC2)n1	-27%&-9%
O=C(N[C@@H]1N=C(c2ccccc2F)c2cccc3c2N(CC3)C1=O)c1cc2ccccc2[nH]1	28%
CC(C)Oc1cccnc1N(C)C1CCN(Cc2ccccc2)CC1	-3%
Nc1ccc(N)cc1	-22%
CC[C@H]1C[C@H]2[C@@H]3CCC4=CC(=O)CC[C@@H]4[C@H]3CC[C@]2(C)[C@H]1O	-14%
Nc1ccc([N+](=O)[O-])cc1	-17%
CCCCC1C(=O)NC(=O)N(C2CCCCC2)C1=O (stereo not given)	1%
c1ccc2sc(C3(NCC4CC4)CCCCC3)cc2c1	-3%
The list continues.
SMILES	EPAC1 ag val
O=C(O)[C@H]1[C@H]2CN[C@H](C(=O)O)[C@H]21	-12%&2%
CC1(C(=O)O)C2CCC(O2)C1(C)C(=O)O (stereo not given)	-5%
CC(NC(C)(C)C)C(=O)c1cccc(Cl)c1 (stereo not given)	4%&-10%&-25%
CC(=O)O[C@H]1CC[C@@]2(C)C(=CC[C@@H]3[C@@H]2CC[C@]2(C)C(=O)CC[C@@H]32)C1	-6%
COC(=O)COc1ccc(Cl)cc1Cl	13%

These rows are one share of the data; rates above refer to the full screens.
